# GIRK2 activ: activators of human GIRK2 potassium channels; P48051; HEK293-GIRK2 thallium flux, Thallos fluorescence; calls only for hits at 25 µM; actives 0.05% (n = 63,000); AID 1259325;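 active means among the strongest 0.2% of first-round signals and kept after retests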;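 further: first round at about 10 µM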
# Target sequence (P48051 whole entry, looked up): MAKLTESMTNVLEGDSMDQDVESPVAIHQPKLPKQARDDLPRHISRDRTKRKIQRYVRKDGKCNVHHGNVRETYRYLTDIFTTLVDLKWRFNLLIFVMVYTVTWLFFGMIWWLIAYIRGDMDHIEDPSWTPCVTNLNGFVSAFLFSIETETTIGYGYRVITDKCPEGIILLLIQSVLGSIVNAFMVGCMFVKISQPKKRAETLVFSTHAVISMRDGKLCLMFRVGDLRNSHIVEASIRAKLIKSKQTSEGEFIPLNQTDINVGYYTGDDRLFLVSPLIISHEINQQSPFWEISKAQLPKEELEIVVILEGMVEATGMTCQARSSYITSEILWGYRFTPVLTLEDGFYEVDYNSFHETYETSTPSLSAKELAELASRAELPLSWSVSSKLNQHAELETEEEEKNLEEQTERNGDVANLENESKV
# Calls only; i = inactive.
SMILES,GIRK2 activ
O=C(Nc1ccc(Cl)cc1)N1CCC(Oc2ncccc2Cl)CC1,i
O=C(CN1CCN(C(=O)c2cc(-c3cccs3)[nH]n2)CC1)c1ccco1,i
O=C(NCC1CCCO1)Nc1nccn(-c2cccc(Cl)c2)c1=O (configuration not stated),i
Cc1c(C)n2c3c(=O)n(C)c(=O)n(C)c3nc2n1CCN1CCCC(C)C1 (configuration not stated),i
COc1cccc(COc2coc(C(=O)NC3CC3)cc2=O)c1,i
CC(=O)Nc1ccc(C2=NN(C(C)=O)C(c3ccc4c(c3)OCO4)C2)cc1 (configuration not stated),i
Cc1cc(OCC(=O)Nc2ccc(C)c(Cl)c2)nc(N2CCCCCC2)n1,i
CC(C)CCn1c(=O)c2ccc(C(=O)NC3CCCCC3)cc2n2c(=O)n(CC(N)=O)nc12,i
CCCCCCCCCCCCCCCCOC[C@H](CO)OC(C)=O,i
O=C(Cn1ncn2nc(-c3ccc(Cl)cc3)cc2c1=O)Nc1ccc2c(c1)OCCO2,i

# A stretch of the results above, as a working copy:
SMILES,GIRK2 activ
O=C(Nc1ccc(Cl)cc1)N1CCC(Oc2ncccc2Cl)CC1,i
O=C(CN1CCN(C(=O)c2cc(-c3cccs3)[nH]n2)CC1)c1ccco1,i
O=C(NCC1CCCO1)Nc1nccn(-c2cccc(Cl)c2)c1=O (configuration not stated),i
Cc1c(C)n2c3c(=O)n(C)c(=O)n(C)c3nc2n1CCN1CCCC(C)C1 (configuration not stated),i
COc1cccc(COc2coc(C(=O)NC3CC3)cc2=O)c1,i
CC(=O)Nc1ccc(C2=NN(C(C)=O)C(c3ccc4c(c3)OCO4)C2)cc1 (configuration not stated),i
Cc1cc(OCC(=O)Nc2ccc(C)c(Cl)c2)nc(N2CCCCCC2)n1,i

# The listing continues:
SMILES,GIRK2 activ
CNC(=O)c1cc(-c2ccc(F)cc2)cc(-c2ccc(S(=O)(=O)N3CCCC3)cc2)c1N,i
CCc1ccc(-n2c(=O)c3ccccc3n(Cc3nc(-c4ccc(OC)c(OC)c4)no3)c2=O)cc1,i
CCCCCCCCCCCCCCCC(=O)NC(CO)CO,i
O=S(=O)(C1CC1)N1CCN(c2cc(N3CCCCC3)ncn2)CC1,i
CNC(=O)/C(C#N)=C1\SC(Cc2cc(Cl)ccc2Cl)C(=O)N1c1ccc(F)cc1 (configuration not stated),i
Cc1nc(NC(=O)Cn2nc(-n3cccn3)ccc2=O)sc1C(=O)N(C)C,i
Cc1cccc(Oc2nccn3c(=O)n(CC(=O)N4CCN(c5ccccc5F)CC4)nc23)c1C,i
O=C(c1ccncc1)N1CCC(CNC(=O)C2(c3ccccc3)CCOCC2)CC1,i
CCOC(=O)C1CCc2sc(NC(=O)c3ccc(NC(=O)c4cn(C)nc4OC)cc3)nc21 (configuration not stated),i
COc1ccc(OC)c(N2CCn3c2nc2c3c(=O)n(CCc3ccccc3)c(=O)n2C)c1,i
CCOc1ccc(NC(=O)CSc2nccnc2N2CCN(c3ccccc3OC)CC2)cc1,i
Cc1c(C(=O)c2ccc(Cl)cc2)oc2cc(NC(=O)C3CC3)ccc12,i
O=C(NC1CCCC(O)C1)c1cc(-c2ccccc2)on1 (configuration not stated),i
Cc1cc(C)cc(-n2c(-c3ccccc3)cn3c4c(=O)n(CC(N)=O)c(=O)n(C)c4nc23)c1,i
O=C(CC1CCCCC1)Nc1ccc(-c2cn3c(n2)SCC3)cc1,i
Cc1nc(-c2ccccc2)cc2nn(CC(=O)N3CCOCC3)c(=O)n12,i
O=C(Nc1cc(Cl)ccc1O)c1cc2n(n1)CCCO2,i
COc1cc(NS(=O)(=O)c2ccc(NC(=O)c3cccc(C)c3)cc2)ncn1,i
O=c1ccc(-c2ccc3c(c2)OCO3)nn1Cc1nc(-c2cccs2)no1,i
O=C(/C=C/c1ccco1)NCCc1nc2c(c(C(F)(F)F)n1)CCCC2,i

# Of the compounds above, four contain fluorine.
SMILES,GIRK2 activ
CNC(=O)c1cc(-c2ccc(F)cc2)cc(-c2ccc(S(=O)(=O)N3CCCC3)cc2)c1N,i
CNC(=O)/C(C#N)=C1\SC(Cc2cc(Cl)ccc2Cl)C(=O)N1c1ccc(F)cc1 (configuration not stated),i
Cc1cccc(Oc2nccn3c(=O)n(CC(=O)N4CCN(c5ccccc5F)CC4)nc23)c1C,i
O=C(/C=C/c1ccco1)NCCc1nc2c(c(C(F)(F)F)n1)CCCC2,i

# Next part
SMILES,GIRK2 activ
O=C(c1ccc(S(=O)(=O)N2CCCCC2)cc1)N(C(=O)N1CCCCC1)c1ccccc1,i
CCN(CC)c1nc2ccsc2c(=O)n1CCC(=O)Nc1ccc(F)cc1,i
COc1cc2ncn(-c3cc(OCc4cccs4)c(C(N)=O)s3)c2cc1OC,i
COc1ccc(Nc2nnc(Cc3ccc(C(C)C)cc3)c(=O)[nH]2)cc1OC,i
NC(=O)C1CCN(C(=O)C(=O)Nc2c3c(nn2-c2ccc(Cl)cc2)CSC3)CC1,i
O=C(COc1cc(=O)n2ccccc2n1)Nc1ccc(OC(F)(F)F)cc1,i
CCOc1ccc(CNC(=O)c2sccc2N(C)S(=O)(=O)c2ccc(C)cc2)cc1,i
N#C/C(=C\c1ccc(Cl)cc1Cl)c1nc2ccccc2o1,i
COc1cccc(-n2c(C)c(C)n3c4c(=O)n(C)c(=O)n(C)c4nc23)c1,i
Cc1ccc(N2CCN(S(=O)(=O)N3CCCCCC3)CC2)cc1Cl,i
O=C(CSc1nc2ccccc2s1)Nc1ccccc1-c1ccc(=O)[nH]n1,i
CC(=O)Cn1c(=O)c2c(nc3n(-c4ccc(C)c(Cl)c4)c(C)cn23)n(C)c1=O,i
CCCOc1cccc(C2C(C(=O)c3cccs3)=C(O)C(=O)N2Cc2cccnc2)c1 (configuration not stated),i
COCCn1c(=O)c2c(nc(-n3nc(C)cc3C)n2CCCc2ccccc2)n(C)c1=O,i
COc1ccccc1N1CCN(CCNC(=O)c2ccc(F)cc2)CC1,i
CS(=O)(=O)c1cccc(S(=O)(=O)Nc2ccc3c(c2)OCO3)c1,i
COCC1CCCN(Cc2ccccc2C)C1 (configuration not stated),i
COc1cc(/C=C/c2ccc(OC)cc2OC)cc(OC)c1,i
COc1ccc(/C=C/C(=O)NCc2ccccc2)c(OC)c1,i
Nc1nc(O)c(-c2ccccc2)c(=O)[nH]1,i
CCn1c(-c2ccc(OC)cc2)cn2c3c(=O)[nH]c(=O)n(C)c3nc12,i
O=c1nc(NCc2cccs2)c2ccccc2[nH]1,i
COc1cccc(NS(=O)(=O)c2cc3c4c(c2)CCC(=O)N4CCC3)c1,i
COc1ccccc1N1CCCn2c1nc1c2c(=O)n(CCCc2ccccc2)c(=O)n1C,i
CS(=O)(=O)c1ccc(NC(=O)c2cn(CC(O)c3ccccc3)nn2)cc1 (configuration not stated),i
O=C(NCCn1nc(-n2ccnc2)ccc1=O)c1cc(Br)ccc1Cl,i
CCn1c(N=Nc2c(O)[nH]c3ccccc23)nc2c1c(=O)n(C)c(=O)n2C,i
O=C(Cn1c(=O)oc2ccccc21)N1CCN(c2cc(N3CCOCC3)ncn2)CC1,i
COc1ccccc1CCNC(=O)Cc1c(C)nc(SCc2ccc(F)cc2)[nH]c1=O,i
Cn1nnnc1SCC(=O)Nc1ccc2cn[nH]c2c1,i
Cc1ccc2nc(NC(=O)CCc3c(C)[nH]c(=O)[nH]c3=O)sc2c1,i
CS(=O)(=O)N1CCN(CCNC(=O)c2cc(Cl)cc(Cl)c2)CC1,i
COc1ccc(C)c2sc(N(CC3CCCO3)C(=O)c3ccc(SC)cc3)nc12 (configuration not stated),i
CCOc1ccc(-c2nc(C#N)c(N3CCN(C(=O)c4ccccc4F)CC3)o2)cc1,i
Cn1nc(C(=O)NCC2(c3ccc(F)cc3)CCOCC2)ccc1=O,i
Cc1ccc(S(=O)(=O)N2CCN(C(=O)c3ccc4c(c3)OCO4)CC2)cc1C,i
O=S(=O)(NCCC(O)c1ccoc1)c1ccc(N2CCCCS2(=O)=O)cc1 (configuration not stated),i
CS(=O)(=O)Nc1cccc(NC(=O)c2csc(-n3cccc3)n2)c1,i
COc1ccc(NC(=O)CSc2nccnc2N2CCN(c3ccccc3)CC2)cc1,i
CS(=O)(=O)N1CCN(C(=O)c2csc(-c3cnccn3)n2)CC1,i
Cc1ccc(N2CCCn3c2nc2c3c(=O)n(C)c(=O)n2C)cc1Cl,i
CCOc1ccc(NC(=O)C(=O)NCC2(CO)CC2)cc1,i
COc1ccc(C(C)NC(=O)Cn2cc(-c3ccccc3)c(N3CCOCC3)n2)cc1 (configuration not stated),i
CC(C)S(=O)(=O)c1ccc(CC(=O)N2CCCC(c3nnc(-c4ccc5c(c4)OCO5)o3)C2)cc1 (configuration not stated),i
Cc1ccc(N(C)S(=O)(=O)c2ccsc2-c2nc(-c3cccnc3)no2)cc1F,i
O=C(c1ccc2ncsc2c1)N1CC(c2nc(-c3ccncc3)no2)C1,i
CCCCC/C=C/C=C1/C=CC(=O)[C@@H]1CCCCCCC(=O)O,i
NC(=O)Cn1nc(-c2ccc3c(c2)OCO3)ccc1=O,i
O=S(=O)(NCC(O)c1ccoc1)c1ccc(OC(F)(F)F)cc1 (configuration not stated),i
C=CCn1c(=O)c2ccccc2n(Cc2nc(-c3ccc(C(F)(F)F)cc3)no2)c1=O,i

# 3 compounds already listed, sorted by formula weight, lowest first:
SMILES,GIRK2 activ
NC(=O)Cn1nc(-c2ccc3c(c2)OCO3)ccc1=O,i
O=S(=O)(NCC(O)c1ccoc1)c1ccc(OC(F)(F)F)cc1 (configuration not stated),i
COc1ccc(C(C)NC(=O)Cn2cc(-c3ccccc3)c(N3CCOCC3)n2)cc1 (configuration not stated),i

# (next part)
SMILES,GIRK2 activ
C=C(C(=O)O)C1CC(OC(=O)CC(C)CC)C2(C)CCCC(=C)C2C1 (configuration not stated),i
CCOc1ccc(NC(=O)N2CCC(CSc3nccn3C)CC2)cc1,i
COc1ccc(-c2csc(-n3nc(C)cc3NC(=O)c3ccc(F)c(F)c3)n2)cc1OC,i
CCCn1c(=O)c2c(nc3n(-c4cccc(C)c4C)c(C)cn23)n(C)c1=O,i
CC(C)(C)c1ccc(C(=O)N2CCN(CCn3cccn3)CC2)cc1,i
CC(C)(C)N(C(=O)c1cc(Cl)ccc1[N+](=O)[O-])C(=O)N1CCCCC1,i
COCCn1c(C(=O)N2CCN(C(=O)c3ccco3)CC2)cc2c(=O)n(C)c(=O)n(C)c21,i
CS(=O)(=O)N1CCC(Oc2cnccn2)CC1,i
COc1ccc(Cl)cc1NC(=O)C1CCCN(c2ccc(-c3ccco3)nn2)C1 (configuration not stated),i
Cc1nnc(C2CCCN(S(=O)(=O)c3ccccc3)C2)s1 (configuration not stated),i
O=C(NCc1cccc2ccccc12)N1CCC(c2ccccc2)C1 (configuration not stated),i
Cn1c(CN2CCN(S(=O)(=O)c3ccc(F)cc3)CC2)nc2ccccc21,i
O=C(c1cc(Br)ccc1Cl)N1CC(c2nc(-c3ccco3)no2)C1,i
COc1cccc2sc(OC3CN(S(=O)(=O)c4c(F)cccc4F)C3)nc12,i
O=C(Oc1ccc2c(=O)c(-c3ccc(Br)cc3)coc2c1)c1ccco1,i
COc1ccccc1OCC#CCNC(=O)CCn1ccc(=O)[nH]c1=O,i
Cc1c(C(=O)N2CCN(c3ccccc3Cl)CC2)nnn1-c1nccs1,i
CCOc1ccc(C2c3c(oc4cc(C)c(C)cc4c3=O)C(=O)N2CCN(C)C)cc1 (configuration not stated),i
C#CC(C)(CC)OCC(O)CN1CCN(C)CC1 (configuration not stated),i
O=C(NC1CCCC1)C1=Cc2ccccc2OC1,i
Cc1ccccc1-n1cnnc1CN1CCN(C(=O)c2ccsc2)CC1,i
Cc1cc(NC(=O)c2ccc(S(=O)(=O)NC3CC3)cc2)c2cc(F)cc(F)c2n1,i
CCCCNC(=O)Cn1nc2c(N3CCC(C(=O)OCC)CC3)nc3ccccc3n2c1=O,i
CNS(=O)(=O)c1cccnc1Nc1ccc(F)cc1,i
Cc1cnc(NC(=O)CCc2nc(-c3ccccc3)no2)s1,i
O=C(CSc1nccn1-c1ccc(C(=O)NCc2ccccc2)cc1)Nc1ccc(F)cc1F,i
Cc1cc(NC(=O)C2CCN(c3ccc(=O)n(C)n3)CC2)on1,i
Cc1cc(-c2ccccc2)nc2cc(-c3nc(-c4cccs4)no3)nn12,i
CCNS(=O)(=O)c1c(C)cc(C)c(N(C)S(=O)(=O)c2ccccc2)c1C,i
COc1cccc(CNC(=O)CSc2ncnc3c2[nH]c2ccc(F)cc23)c1,i
O=C(Nc1nc2c(s1)CN(C(=O)C1(c3ccccc3)CCOCC1)CC2)C1CC1,i
O=C(c1csc(-c2ccccc2)n1)N1CCC(Cn2c(C(F)(F)F)nc3ccccc32)CC1,i
COc1cc[nH]c1/C=C1\C(=O)Nc2ccc([N+](=O)[O-])c(N3CC[C@@H](O)C3)c21,i
C=CCn1c(=O)c2c(nc3n(-c4ccccc4OC)c(C)c(C)n23)n(C)c1=O,i
Cc1ccc2c(c1)N(Cc1nc(-c3ccc(OCc4ccccc4)cc3)no1)C(=O)CO2,i
CN1C(=O)c2oc3ccc(Br)cc3c(=O)c2C1c1ccccc1 (configuration not stated),i
Cc1ccc(N2CCn3c2nc2c3c(=O)n(CCCO)c(=O)n2C)cc1Cl,i
CC(C)(C)c1ccc(S(=O)(=O)N2CCC(c3nnc(C4CC4)s3)CC2)cc1,i
CSc1cccc(C(=O)N(CC2CCCO2)c2nc3c(C)ccc(C)c3s2)c1 (configuration not stated),i
Cc1ccc2c(c1)c(=O)c(-c1nc(-c3ccc(OC(C)C)cc3)no1)cn2C,i
COc1ccc(NC(=O)C2(c3cccs3)CCCC2)cc1OC,i
Cc1nnsc1C(=O)N1CCC2(CC1)OCCS2,i
Cc1cc(C(O)CCNC(=O)C(=O)NCc2ccc(F)cc2)c(C)o1 (configuration not stated),i
O=C(Cn1ccc2ccccc21)Nc1cccc(-c2ccn[nH]2)c1,i
O=C(COc1ccc(Cl)cc1Cl)Nc1ccc(SCC(=O)N2CCCC2)nn1,i
COc1ccc(OCc2noc(CNC(=O)c3c(F)cccc3F)n2)cc1,i
CCOCCn1c(-n2nc(C)cc2C)nc2c1c(=O)n(Cc1cccc(C)c1)c(=O)n2C,i
C=CCn1c(=O)[nH]c2cc(C(=O)N3CCN(c4cc(C)ccc4C)CC3)ccc2c1=O,i
CCc1ccc(C(=O)c2cn(CC(=O)Nc3ccc4c(c3)OCCO4)c3ccc(F)cc3c2=O)cc1,i
O=C(CCCn1c(=S)[nH]c2cc3c(cc2c1=O)OCO3)NCc1ccccc1Cl,i
N#CCCN1CCC(c2cccs2)CC1,i
O=C(Nc1cccs1)Nc1nc(-c2nc3ccccc3s2)cs1,i

# The list is partial. The share of hits here may be higher or lower than overall.
